Vaccinia Venus = qHTS for Stage-Specific Inhibitors of Vaccinia Orthopoxvirus: Venus Reporter Primary qHTS; Vaccinia virus Venus reporter expression, fluorescence; AID 720580, 2013; Potency, µM (series often up to 36.5 µM), for inactives: top-dose activity change, negative = inhibition, most hits filed as inhibitors; 330,000 compounds, 0.46% hits; active means well fitted inhibition curve with a large enough effect; inconclusive means small, poorly fitted or top-dose-only effect; inactive means no such curve, though single readings can be large or run the other way; tested in A549 cells; note: nearly all actives have a fitted effect of over 30% in size; inactives centre near -10
VACV mCherry inh = qHTS for Stage-Specific Inhibitors of Vaccinia Orthopoxvirus: mCherry Reporter Primary qHTS | Potency, µM (titrated, usually from 36.5 µM), inactives show top-dose activity change, negative = inhibition, hits mostly inhibitors | 310,000 compounds, 0.63% hits | AID 720579, 2013 | Vaccinia virus mCherry reporter infection, fluorescence; about a quarter of the inactives have no number; active = well fitted inhibition curve with a large enough effect; inconclusive = small, poorly fitted or top-dose-only effect; inactive = no such curve, though single readings can be large or run the other way; tested in A549 cells; note: nearly all actives have a fitted effect of over 35% in size; inactives centre near -10
The depositor's hits bear a star; i = inactive; ? = inconclusive; / = not tested or not shown; & = joins results of further samples; [ ] = another dose, or the depositor's remark. % is set by controls: 0 for no effect and ±100 for the full control effect; potency is the fitted concentration of half-maximal effect.

SMILES | Vaccinia Venus | VACV mCherry inh
CC(C)c1ccc(N2C(=O)CC(=O)NC2=O)cc1 | 3% | -10%
Cc1c(=O)n(OCc2ccccn2)c2ccccc2[n+]1[O-] | -6% | -16%
O=C(Nc1ccccc1)c1cccc2c(=O)c3c([nH]c12)CCCC3 | -21% | -21%
O=C(CN(c1ccccc1)S(=O)(=O)c1ccc(Cl)cc1)Nc1cccnc1 | -3% | ?
CCC(=O)N1CCC1(C)C(=O)Nc1cccc2c1CCCC2 (stereo not given) | 7% | 3%
CSc1nc2c(cc1C#N)C(=O)CC(C)(C)C2 | -4% | -5%
CCOC(=O)/C(=C\c1ccc(OC)c(OC)c1)C(=O)c1cccnc1 | -7% | -7%
CCCCOc1ccc(C(=O)Nc2cccc(-c3nc4cccnc4s3)c2)cc1 | ? | ?
CN(Cc1ccon1)C(=O)CC1C(=O)NCCN1Cc1cccc(F)c1F (stereo not given) | -10% | -2%
Cc1nnc(N2C(=O)c3cccc4cccc(c34)C2=O)s1 | -14% | -13%
C=C1CCN([C@H](C(=O)OCc2cccc(C)c2)C(C)C)S(=O)(=O)c2ccccc21 | -34% | ?
COCc1cccc(C2=CC(=O)C[C@H](c3ccc(OC)cc3)C2)c1 | -17% | -2%
COC(=O)c1ccc(CSc2n[nH]c(C)n2)o1 | -5% | i
CC(=O)CSc1nnc(C(F)(F)F)n1C | -5% | -13%
Cc1cc(C(=O)CN2C(=O)NC(c3ccccc3)(c3ccccc3)C2=O)c(C)n1Cc1ccccc1 | ? | -16%[1.46 µM]
COc1ccc(Cn2c(=O)[nH]c3cc(C(=O)N4CCN(C(=O)c5ccco5)CC4)ccc3c2=O)cc1 | -17% | i
O=C(COC(=O)c1ccc(Cl)nc1)Nc1ccc2ccccc2c1 | -10% | -15%
COc1cccc(C2CC(c3cccs3)Nc3ncnn32)c1 (stereo not given) | 0% | i
O=C(NCCNCC(O)COc1ccc(O)cc1)N1CCOCC1 (stereo not given) | -19% | i
Cc1cc(C)n(CC(O)COc2ccc(Cl)cc2)n1 (stereo not given) | -10% | -20%
COc1cc(/C=C/CNC[C@H]2O[C@@H](n3ccc(N)nc3=O)[C@H](O)[C@@H]2O)ccc1O | 2% | -8%
C/C(=N\N=C(N)N)c1ccc(Cl)c(Cl)c1 | ? | ?
O=C(O)CCc1ccc(-c2ccc(F)cc2)n1NC(=O)c1ccco1 | -16% | /
CCn1c(-c2ccc3[nH]c(C)c(C)c3c2)n[nH]c1=S | -11% | -25%
CCOC(=O)C1=C(CS(=O)(=O)c2ccc(C)cc2)NC(=O)NC1c1ccc(C(C)C)cc1 (stereo not given) | -11% | -11%
COc1ccc(N=N/C(C(C)=O)=C(/C)O)cc1 | -14% | -12%
Oc1cc2c(cc1O)[C@H]1c3ccccc3CN[C@H]1CC2 | -17% | -5%
CN(C(=O)C1CCCCN1S(=O)(=O)c1ccccc1)c1ccccc1 (stereo not given) | 8% | i
COc1ccccc1C(=O)COC(=O)CN1C(=O)C2CC=CCC2C1=O (stereo not given) | -2% | -17%
O=C(NC1CCCCC1)C(c1ccco1)N(Cc1cccs1)C(=O)Cn1nnc2ccccc21 (stereo not given) | -12% | -23%
O=C1NC(=S)NC(=O)C1Cc1ccccc1 | -6% | i
COc1ccc(OC)c(CCNC(=O)c2cnn(-c3ccc(C)cc3C)c2C2CCN(C(=O)OC(C)(C)C)CC2)c1 | -14% | -6%
CCOC(CNC(=O)C(=O)Nc1cc2c3c(c1)CCC(=O)N3CCC2)OCC | -7% | i
O=C(COc1ccc(Cl)cc1)NCc1nnc(SCC(=O)N2CCCCC2)o1 | -6% | -9%
CN1CCN(CCCNC(=O)c2cc3c(-c4ccc(Cl)cc4)nn(C)c3s2)CC1 | 1% | 13%
CN1CCN(C(=O)/C=C/c2ccc([N+](=O)[O-])cc2)CC1 | -5% | -2%
Cc1ccc(C(=O)NC2CCN(S(=O)(=O)c3ccc(C)cc3)CC2)cc1 | -15% | -24%
Cc1nn(CC(=O)N2CCN(c3cccc(Cl)c3)CC2)c(=O)c2c1sc1ccccc12 | -13% | -5%
COc1ccccc1N1CC(C(=O)Nc2ccccc2N2CCCC2)CC1=O (stereo not given) | -12% | ?
CCOC(=O)c1scc(-c2ccc(C)cc2)c1S(=O)(=O)Nc1cc(C)ccc1C | 6% | -4%

Some of the entries so far, as a markdown table.
| compound | Vaccinia Venus | VACV mCherry inh |
| --- | --- | --- |
| O=C1NC(=S)NC(=O)C1Cc1ccccc1 | -6% | i |
| CN1CCN(CCCNC(=O)c2cc3c(-c4ccc(Cl)cc4)nn(C)c3s2)CC1 | 1% | 13% |

The listing continues.
SMILES | Vaccinia Venus | VACV mCherry inh
CCc1nc2ccccc2c(NC(=O)CN2CC(C)CC(C)C2)c1C (stereo not given) | 10% | 8%
O=C1Nc2ccccc2SC1=Cc1ccccc1 | ? | -16%
CCOC(=O)[C@]12Cc3c(cc(OC)c(OC)c3OC)[C@H]1N(C)C(=O)c1ccccc12 | 3% | 8%
NC(=O)CC(NC(=O)Cc1ccc(Cl)cc1)c1ccc(NC2CCCCC2)c([N+](=O)[O-])c1 (stereo not given) | -28% | -6%
CC1(C)CC(=O)C(C=NCCN2CCN(C3CC(=O)N(c4cccc(Br)c4)C3=O)CC2)=C(O)C1 (stereo not given) | -8% | -15%
CCN(CC(=O)NC1CCS(=O)(=O)C1)S(=O)(=O)c1ccc(C)c(C)c1 (stereo not given) | -4% | -5%
CN(C)c1ccc(N=Cc2nc(-c3ccccc3)oc2OC(=O)c2ccccc2)cc1 | -7% | -9%
O=C(c1ccc(Cl)c(Cl)c1)N1CCN(c2ccccn2)CC1 | -23% | -21%
Cc1ncc2c(c1CNC(=O)CN1CCCCC1)CCN(C(=O)c1ccc(F)cc1Cl)C2 | -7% | -8%
COc1ccc(N2CCCC2=O)cc1S(=O)(=O)N1CCOCC1 | -6% | i
O=C(C1CCN(S(=O)(=O)c2ccc(Br)s2)CC1)N1CCN(c2ccccc2)CC1 | -1%&-6% | ?
CC(O)CCC(=O)NNC(=S)Nc1ccccc1 (stereo not given) | -19% | -7%
CCn1c(/C(C#N)=N/O)nc2ccccc21 | -17% | -6%
O=C(O)c1cccc(S(=O)(=O)Nc2ccc(S(=O)(=O)N3CCOCC3)cc2)c1 | -3% | 0%
CCc1cccc(C)c1NC(=O)C1CC=CCC1C(=O)O (stereo not given) | -10% | i
Cn1cc(Cl)c(C(=O)OCC(=O)Nc2ccc(S(N)(=O)=O)cc2)n1 | -14% | i
O=C1CN(C(=O)c2ccc(S(=O)(=O)N3CCCCC3)cc2)C(c2ccc(F)cc2)c2cc(F)ccc2N1 (stereo not given) | -19% | -21%
CCOc1ccc(Cn2c(=O)oc3ccc(C)cc32)cc1OC | ? | ?
NC(=O)NC(Cc1ccccc1)C(=O)NCCCSc1ccccc1 (stereo not given) | 1% | -15%
CCCCn1c(=NC(C)=O)c(C#N)cc2c(=O)n3cccc(C)c3nc21 | -18% | -15%

Compound profiles, as listed above. Order of values: Vaccinia Venus, VACV mCherry inh
`NC(=O)CC(NC(=O)Cc1ccc(Cl)cc1)c1ccc(NC2CCCCC2)c([N+](=O)[O-])c1` (stereo not given) as listed: -28%, -6%
`CCOc1ccc(Cn2c(=O)oc3ccc(C)cc32)cc1OC` as listed: ?, ?

(cont.)
SMILES | Vaccinia Venus | VACV mCherry inh
CCc1cccc(NC(=O)CCS(=O)(=O)c2cccc3nonc23)c1 | -17% | -11%
NS(=O)(=O)c1ccc(NC(=S)NC2CCCCCC2)cc1 | -27% | -16%
c1nc(NCCN2CCOCC2)c2sc3nc(N4CCOCC4)c4c(c3c2n1)CCC4 | -17% | -26%
O=C(CN(Cc1ccccc1F)S(=O)(=O)c1ccc(Cl)cc1)NCCCO | 1% | -5%
C=CCNc1nc(NCc2ccc(N(C)C)cc2)c2sc(-c3ccccc3)cc2n1 | ? | ?
c1ccc(Cn2ncc3c(NCc4ccco4)ncnc32)cc1 | -19% | -16%
O=C(C1CCCN(Cc2ccncc2)C1)N1CCc2ccccc2C1 (stereo not given) | -5% | /
OCCn1c(SCCOc2ccccc2)nc2ccccc21 | -9% | -19%
CCOC(=O)c1c(C)[nH]c(C)c1C(=O)COC(=O)/C=C/c1ccc(OC(F)F)cc1 | ? | -22%
CCN(CC)C(=O)c1ccc(NC(=S)NC(=O)CCc2ccccc2)cc1 | -18% | ?
COC(=O)[C@]1(Cc2ccccc2)N[C@H](CN(C)C(=O)Nc2ccc(C(F)(F)F)cc2)[C@@H]2C(=O)N(C)C(=O)[C@@H]21 | -18% | i
O=C1CN(C(=O)COc2ccc(Cl)cc2Cl)C(c2ccccc2)c2cc(F)ccc2N1 (stereo not given) | -14% | -16%
NC(CC(=O)O)c1cccc(OCc2ccccc2)c1 (stereo not given) | -18% | /
O=C1CCN(Cc2ccccc2)CCN1CCOc1ccccc1 | -1%&-15% | i
CCOC(=O)c1cnc(-c2ccccc2)nc1N(C)C | 0% | -10%
Cc1ccc(C(=O)C(C)OC(=O)c2ccccc2[N+](=O)[O-])cc1 (stereo not given) | -18% | i
Cc1oc(-c2ccccc2NC(=O)c2ccccc2)nc1CNC(=O)c1cccc(-n2cccn2)c1 | 14% | -6%
CC1c2ccccc2CN1CC1=NCCN1 (stereo not given) | -5% | -14%
COc1ccc(/C=C/C(=O)c2ccc(C)c([N+](=O)[O-])c2)cc1O | -22% | -18%
CN(C)c1ccc(C(=O)OCC(=O)N2CCCCCC2)cc1 | -6% | -11%
Cc1cc(C)c(Cn2ncn(-c3ccc(Br)cc3)c2=O)c(C)c1 | -11% | i
Cc1ccc(C(=O)CSc2nc(-c3ccccc3)ccc2C#N)cc1 | -6% | -3%
O=c1[nH]c(/C=C/c2ccccc2OC(F)F)nc2c1cnn2-c1ccccc1 | -16% | i
CCOc1ccc(OCCC(=O)OCC(=O)NC2CCCCC2)cc1 | 1% | -5%
CC(CC(=O)O)NCC1COc2ccccc2O1 (stereo not given) | -3% | -6%
O=C(Nc1cccc(-c2ccc(N3CCOCC3)nn2)c1)c1ccc([N+](=O)[O-])cc1 | -11% | i
CC1(c2nnnn2Cc2ccccc2)CCC(=O)N1CCCn1ccnc1 (stereo not given) | 4% | 24%
CC(NS(=O)(=O)c1ccc(OCC(=O)N2CCCC2)cc1)c1ccccc1 (stereo not given) | -3% | -11%
COc1ccc(CCNC(=O)CSc2nc3c(c(=O)n(C)c(=O)n3C)n2C)cc1OC | -21% | -7%
CC1(OC(=O)CCc2ccccc2)C(=O)C=C2C=C(c3ccc(C#N)cc3)N(C(CO)CO)C=C2C1=O (stereo not given) | 10% | -11%
O=C(c1ccccc1)c1cc2ccccc2oc1=O | -13% | -18%
Cc1cc(NC(=O)CCC(=O)N(c2ccccc2)C(C(=O)NCC2CCCO2)c2cccnc2)no1 (stereo not given) | 1% | -4%
Cc1cc(C)cc(NC(=O)N2CCC(NC(=O)c3ccccc3C)CC2)c1 | -19% | -24%
COc1cccc(N2CCN(C(=O)C3CCCN(S(=O)(=O)c4ccc(Br)s4)C3)CC2)c1 (stereo not given) | -16% | -27%
COC(=O)C1=C(c2c(C)noc2C)C[C@@H]2CC[C@H]1N2C(=O)N1CCc2cc(OC)c(OC)cc2C1 | -6% | i
COCCCn1cc(CN2CC(N3CCN(CCO)CC3)CS2(=O)=O)nn1 (stereo not given) | -14% | -4%
O=C(Nc1ccccc1)OCc1cncs1 | -2% | -15%
CCc1cccc(NC(=O)Nc2cn(C)c(=O)c3ccccc23)c1 | -13% | -1%
Cc1occc1C(=O)N1CCCc2ccccc21 | -9% | i
N#CC1CC(c2ccccc2)=NN1c1ccccc1[N+](=O)[O-] (stereo not given) | -17% | -11%

Four of the compounds above, in CSV form:
SMILES,Vaccinia Venus,VACV mCherry inh
O=C(Nc1ccccc1)OCc1cncs1,-2%,-15%
CCc1cccc(NC(=O)Nc2cn(C)c(=O)c3ccccc23)c1,-13%,-1%
Cc1occc1C(=O)N1CCCc2ccccc21,-9%,i
N#CC1CC(c2ccccc2)=NN1c1ccccc1[N+](=O)[O-] (stereo not given),-17%,-11%

The listing continues.
SMILES | Vaccinia Venus | VACV mCherry inh
COc1cc(C(O)c2nc3ccccc3n2C)cc(OC)c1OC (stereo not given) | -21% | /
Nc1nc(SCCC(F)=C(F)F)n[nH]1 | -12% | -10%
CCc1nc2ccc(C(=O)NCCc3ccccn3)cn2c1N(C)Cc1nccs1 | -10% | i
Cc1ccc(S(=O)(=O)NC(CC(C)C)C(=O)Nc2ccncc2)cc1 (stereo not given) | -9% | -8%
COc1cccc(C(c2nnnn2C2CCCCC2)N2CCN(C/C=C/c3ccccc3)CC2)c1OC (stereo not given) | -20% | -13%
O=C(NCC(c1cccnc1)N1CCN(c2ccc(F)cc2)CC1)c1ccco1 (stereo not given) | -21% | ?
O=S(=O)(c1ccc(NC(=S)N2CCN(c3ccc(O)cc3)CC2)cc1)N1CCOCC1 | -8% | -10%
Cc1ccc(Cl)cc1NC(=O)c1ccc(NC(=O)N2CCSc3ncccc32)cc1 | -13% | -20%

Quoted from the listing:
Result for Cc1ccc(Cl)cc1NC(=O)c1ccc(NC(=O)N2CCSc3ncccc32)cc1 under VACV mCherry inh: -20%
Result for O=S(=O)(c1ccc(NC(=S)N2CCN(c3ccc(O)cc3)CC2)cc1)N1CCOCC1 under VACV mCherry inh: -10%
Result for Nc1nc(SCCC(F)=C(F)F)n[nH]1 under VACV mCherry inh: -10%
Result for O=C(NCC(c1cccnc1)N1CCN(c2ccc(F)cc2)CC1)c1ccco1 (stereo not given) under Vaccinia Venus: -21%

Screening data deposited in PubChem BioAssay by National Center for Advancing Translational Sciences (NCATS).
